Screening data (PubChem BioAssay)
KCNQ2 block – KCNQ2 channel blockers in CHO-K1 cells – cell-based, FluxOR thallium flux, B-score, primary screen (AID 2156); O88943; 20 min; hits give low values; only compounds with negative scores are shown here; some inactives read as strong as hits; hit rate 1.1% among 310,000; B-score at 10 µM;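 active means fluorescence ratio B-score at most minus 3 library SDs, with starting brightness B-score within 2 library SDs, cut at about -5.5 in these data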
Target sequence (O88943 whole entry, looked up): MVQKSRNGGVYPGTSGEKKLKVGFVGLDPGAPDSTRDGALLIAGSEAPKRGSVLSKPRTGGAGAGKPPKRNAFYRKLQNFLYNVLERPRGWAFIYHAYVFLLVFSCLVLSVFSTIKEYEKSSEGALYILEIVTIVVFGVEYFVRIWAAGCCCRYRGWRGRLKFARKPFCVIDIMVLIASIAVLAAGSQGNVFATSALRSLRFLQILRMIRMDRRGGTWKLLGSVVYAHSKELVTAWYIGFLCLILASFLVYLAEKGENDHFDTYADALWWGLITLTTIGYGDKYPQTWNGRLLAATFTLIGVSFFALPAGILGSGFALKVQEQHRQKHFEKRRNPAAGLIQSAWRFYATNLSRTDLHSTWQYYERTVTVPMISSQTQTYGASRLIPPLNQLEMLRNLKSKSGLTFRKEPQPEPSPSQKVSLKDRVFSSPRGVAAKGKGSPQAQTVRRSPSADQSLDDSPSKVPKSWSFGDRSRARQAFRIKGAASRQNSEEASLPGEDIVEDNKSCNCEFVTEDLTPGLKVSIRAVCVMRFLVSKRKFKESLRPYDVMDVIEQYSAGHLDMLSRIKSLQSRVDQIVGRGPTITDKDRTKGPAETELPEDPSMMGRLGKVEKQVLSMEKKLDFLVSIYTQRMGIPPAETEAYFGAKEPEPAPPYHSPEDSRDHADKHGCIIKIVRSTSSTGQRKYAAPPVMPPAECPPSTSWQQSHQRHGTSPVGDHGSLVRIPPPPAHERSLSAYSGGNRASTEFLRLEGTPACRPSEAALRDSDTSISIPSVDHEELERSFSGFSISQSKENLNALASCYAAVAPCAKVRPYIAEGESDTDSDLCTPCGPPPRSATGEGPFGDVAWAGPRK
KCNQ2 block baseline – second read-out of KCNQ2 block, no call of its own (marks repeat the call); B-score; measured here: initial fluorescence intensity artifact check;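 brightness before thallium and not channel activity; 0 = typical well and far values either way flag optical interference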
The depositor's hits bear a star; i = inactive.

Start of the listing, in advance, three compounds:
Values run as follows: KCNQ2 block baseline	KCNQ2 block
Cc1nnc(SCc2ccc(C(=O)c3ccc(Cl)cc3)o2)n1-c1ccccc1
    0.43	i
CCCCN1C=C(C(=O)OC)C(c2ccccc2Cl)C(C(=O)OC)=C1
    -1.1	i
COc1ccccc1C(=O)NC(=O)COC(=O)c1cnc(C)cn1
    -0.79	i

The listing, repeating the preview:
Values run as follows: KCNQ2 block baseline	KCNQ2 block
Cc1nnc(SCc2ccc(C(=O)c3ccc(Cl)cc3)o2)n1-c1ccccc1
    0.43	i
CCCCN1C=C(C(=O)OC)C(c2ccccc2Cl)C(C(=O)OC)=C1
    -1.1	i
COc1ccccc1C(=O)NC(=O)COC(=O)c1cnc(C)cn1
    -0.79	i
CCOC(=O)C1C(C)N=C2SCC(=O)N2C1c1cccc(Br)c1 (configuration not stated)
    0.57	i
COCCCNC(=O)C(=O)NCCCOC(C)C
    0.32	i
Cc1ccc(C(=O)NCCOc2cccc(C)c2)cc1
    -0.42	i
CCOC(=O)Nc1c(C)n(C)n(-c2ccccc2)c1=O
    1.7	i
CCCCN(C)C(=O)Cn1nc(-c2ccc(Cl)cc2)ccc1=O
    0.83	i
Cc1ccc2cccc(OCc3ccc(F)cc3)c2n1
    -0.94	i
COc1ccc(N2CCN(C(CNC(=O)c3ccco3)c3ccco3)CC2)cc1 (configuration not stated)
    -2.5	i
Cc1ccc(NC(=O)N2CCc3ccccc3C2)c(C)c1
    -3.2	i
O=C(Cn1cc2c(n1)CCCC2)NCc1cccc(Cl)c1
    1.1	i
O=c1[nH]c(/C=C/c2ccc3c(c2)OCO3)c([N+](=O)[O-])c(=O)[nH]1
    0.59	i
O=C(c1cccc(Cl)c1)N1CCN(Cc2c[nH]c3ccccc23)CC1
    -0.91	i
CCNC(=O)CSc1nnc(-c2ccc(OC)cc2)n1CC(C)C
    0.52	i
CCOCc1nnc(NC(=O)C2CCN(C(=O)C3CC(=O)N(c4ccc(C)cc4)C3)CC2)s1 (configuration not stated)
    0.72	i
O=C(CCc1nnc(COc2ccccc2)o1)NCc1ccccc1C(F)(F)F
    0.76	i
Cc1ccc(-n2cnnn2)c2cccnc12
    -0.41	i
COc1ccc(NS(=O)(=O)c2cn(C)cn2)cc1OC
    -0.09	i
CC(C)C[C@H](NC(=O)[C@@H]1Cc2ccccc2CN1C(=O)OC(C)(C)C)C(=O)NCC1CCC(C(=O)O)CC1 (some centres not stated)
    -0.12	i
CCN(CC)CCN(C(=O)c1ccc([N+](=O)[O-])cc1)c1nc2ccc(OC)cc2s1
    -0.34	i
COc1ccc2c(c1)CCc1c(C(=O)NCc3ccc(F)cc3)noc1-2
    0.49	i
CC(=O)OCc1nc2sc(C)c(C)c2c(=O)[nH]1
    -0.02	i
COc1ccc(Cl)cc1NC(=O)CN(C)CC(=O)Nc1ccccc1C(F)(F)F
    0.03	i
Cc1cccc(-n2c(=O)cc(N3CCN(c4ccc(F)cc4)CC3)[nH]c2=O)c1
    0.57	i
COCCn1nnnc1CN1CCSCC1
    -0.47	i
CC(C)(C)c1ccc(C(=O)NNC(=O)c2cccc(-n3cnnn3)c2)cc1
    -1	i
CN1CCN(C(=O)c2ccccc2Nc2ccc(SC(F)F)cc2)CC1
    -1.4	i
CCOc1ccc(NS(=O)(=O)c2ccc(-c3coc(C)n3)cc2)cc1
    0.66	i
Cc1sc2ncn(CC(=O)NCCCC(=O)N3CCCCC3)c(=O)c2c1C
    0.87	i
CCN(Cc1ccccc1)S(=O)(=O)c1ccc(C(=O)N(CCCN(C)C)c2nc3cc(OC)ccc3s2)cc1
    -1.7	i
CCN1CCN(c2ccc(NC(=O)c3ccc4c(c3)OCO4)cc2)CC1
    0.67	i
O=C(CSc1nc2ccccc2c(=O)n1CC1CCCCC1)N1CCOCC1
    0.01	i
COc1ccccc1NC(=S)NC1CCCC1
    0.61	i
Cn1c(SCC(=O)Nc2ccccc2[N+](=O)[O-])nnc1C(F)(F)F
    1.3	i
Cc1cccc(NC(=O)c2cc3ccccc3nc2C)c1
    0.73	i
CCCC(=O)N1CCN(c2ccc(NC(=S)NC(=O)CC)cc2)CC1
    2.5	i
CSc1nc2ccsc2c(=O)n1-c1cccnc1
    -0.43	i
Nc1nccnc1C(=O)OCC(=O)C12CC3CC(CC(C3)C1)C2
    0.92	i
C=CCn1c(SCC(=O)C(C)(C)C)nnc1-c1ccccn1
    -0.05	i

Ordered by the number under KCNQ2 block baseline (smallest number first): some entries from above.
Values run as follows: KCNQ2 block baseline	KCNQ2 block
C=CCn1c(SCC(=O)C(C)(C)C)nnc1-c1ccccn1
    -0.05	i
COc1ccccc1NC(=S)NC1CCCC1
    0.61	i
Cn1c(SCC(=O)Nc2ccccc2[N+](=O)[O-])nnc1C(F)(F)F
    1.3	i

(continued)
Values run as follows: KCNQ2 block baseline	KCNQ2 block
CN(C)C(CNC(C(=O)Nc1ccc(F)cc1)c1ccccc1)c1ccccc1 (configuration not stated)
    -0.14	i
Cc1cccc(C(=O)N/N=C/c2ccc[nH]2)c1
    -0.05	i
N#Cc1nc(-c2ccccc2F)oc1N1CCN(C(=O)c2ccco2)CC1
    0.13	i
CCc1nc(SCC(=O)Nc2ccccc2OC)n[nH]1
    -1.7	i
Cc1noc(C)c1CSCC(=O)Nc1nc(-c2ccc(F)c(F)c2)cs1
    -0.97	i
FC(F)(F)c1cc(-c2ccccn2)nc2cc(-c3ccccc3)nn12
    1.5	i
COc1ccc(C(=O)Nc2cccc(NC(=O)c3cccs3)c2)cc1OC
    2.9	i
CCc1ccc2nc(SCC(=O)N3CCCCC3)c(C#N)cc2c1
    1.4	i
COc1ccccc1CNC(=O)c1ccc2c(c1)OCO2
    0.37	i
Cc1cccc(CSC2=NCCN2C(=O)c2ccc(Br)o2)c1
    0.04	i
COc1cc(C=O)ccc1OS(=O)(=O)c1ccc(NC(C)=O)cc1
    -0.74	i
N#Cc1sc2nccc(Nc3ccccc3)c2c1N
    0.81	i
O=C(COc1ccccc1)NCC1(N2CCCCC2)CCCCC1
    -1	i
CC1(C)CN(c2ccc(C(=O)c3ccccc3)cc2)C1=O
    -0.39	i
Cc1cccc(CSc2nc3c(c(-c4cccs4)c2C#N)CN(C)CC3)c1
    1	i
CC1CCCN(Cc2nc3c(c(=O)n(C)c(=O)n3C)n2Cc2c(F)cccc2Cl)C1 (configuration not stated)
    -1.7	i
COc1ccc(OC)c(NC(=S)N2c3ccccc3CC2C)c1 (configuration not stated)
    1.2	i
Cc1ccc(CN(N=Nc2nonc2N)c2nonc2N)c(C)c1
    0.74	i
COc1ccc(-c2cn3c(C)c(C(=O)NCc4ccc5c(c4)OCO5)sc3n2)cc1
    0.04	i
Cc1ccc(C(=O)NC2CC3CCCC(C2)N3C(=O)NC2CCCCC2)cc1 (configuration not stated)
    2.2	i
CC1CCCCN1C(=O)CSCC(=O)Nc1nc(-c2cccs2)cs1 (configuration not stated)
    -1.3	i
COc1ccc(C(=O)Nc2ccc(Cl)cc2C(=O)N2CCOCC2)cc1
    0.68	i
CC(OC(=O)CNC(=O)COc1ccccc1)C(=O)N(C)Cc1ccccc1 (configuration not stated)
    -0.8	i
O=C1CC(N2CCCCCC2)C(=O)N1c1ccc2c(c1)OCO2 (configuration not stated)
    0.99	i
O=C(NCCCO)C(=O)Nc1ccc2c(c1)N(S(=O)(=O)c1cccs1)CCC2
    -1.9	i
N/C(Cc1ccc(Cl)cc1Cl)=N\OC(=O)Cc1cccs1
    2.5	i
Brc1ccccc1-n1nnc(-c2cccnc2)n1
    0.85	i
CCN(CC(=O)N1CCN(Cc2ccccc2)CC1)S(=O)(=O)c1ccc(C)cc1
    0.36	i
Cc1ccc(N2C(=O)[C@@H]3C(C(=O)CN4C(=O)c5ccccc5C4=O)=NN[C@@H]3C2=O)c(C)c1
    -0.17	i
CC(C)c1nc(Cl)c(C#N)c2c1CSC(C)(C)C2
    1.9	i
O=C(Nc1ccc(N2CCCC2)c(S(=O)(=O)Nc2cccc(C(F)(F)F)c2)c1)c1cccs1
    0.74	i
CC(=O)Nc1cccc(/C(C)=N/N2C(C)CCCC2C)c1 (configuration not stated)
    -0.06	i
CCc1nc2oc3ccccc3c(=O)c2c(=O)n1Cc1ccccc1
    -2.2	i
Cc1nnsc1C(=O)NNC(=O)c1ccc(C(F)(F)F)cc1
    2.6	i
CC(C)(C)NC(=O)CN(C(=O)CCN1CCCc2ccccc21)C(C)(C)C
    -1.8	i
O=C1C(=O)N(CCN2CCOCC2)C(c2ccc(Cl)cc2)/C1=C(/O)c1ccc(S(=O)(=O)N2CCOCC2)cc1 (configuration not stated)
    -0.74	i
Cc1ccc(CNC(=O)C2CCC(=O)N(CCc3cccc(F)c3)C2)s1 (configuration not stated)
    -2.3	i
COC(=O)NNC(=S)NCc1ccc(C)cc1
    2.1	i
COc1ccc(CN2CCOCCOCCOCC2)cc1
    -1.7	i
O=C(CCCCCn1c(=S)[nH]c2cc3c(cc2c1=O)OCO3)N1CCN(c2ccccc2)CC1
    -0.06	i
CCC(C)[C@H](NC(=O)OC(C)(C)C)c1nnc(SCc2c(C)[nH]c(=O)[nH]c2=O)o1 (some centres not stated)
    -0.66	i
CC(NC(=O)C1CCCN1S(=O)(=O)c1ccc2c(c1)n(C)c(=O)c(=O)n2C)c1ccccc1 (configuration not stated)
    -0.11	i
CCOc1ccc(NC2=NCC(=O)N2Cc2cccs2)cc1
    -1.6	i
Cc1cccc(C(=O)NCCCN2CCCC2=O)c1
    -1.9	i
CSc1nnc(-c2cc[n+](C)cc2)n1CCO
    4	i
CC(=O)c1c(C(C)=O)c(C)n(C(c2ccccc2)c2ccccc2)c1C
    -1.8	i
Clc1ccc(SCc2cc(-c3ccccc3)on2)cc1
    3.4	i
COc1c2c(nc3occc13)C(CC=C(C)C)(OC)C(=O)C=C2 (configuration not stated)
    1.8	i
CC(=O)c1ccc(NC(=S)N2CCCC2)cc1
    1.2	i
O=C(CCCn1nnnc1CN1CCOCC1)N1CCC(c2ccccc2Cl)C1 (configuration not stated)
    2	i

Remaining list, next part.
Values run as follows: KCNQ2 block baseline	KCNQ2 block
CC(C)(C)OC(=O)N1CCC2(CC1)Oc1ccc(F)cc1C(=O)C21CC(c2ccc(Cl)cc2)=NO1 (configuration not stated)
    1.3	i
CC(C)n1c(C(O)c2ccc3c(c2)OCO3)nc2ccccc21 (configuration not stated)
    -0.5	i
COCCC(=O)N1CCC(Oc2ccc(C(=O)N3CCCC(OC)C3)cc2)CC1 (configuration not stated)
    0.17	i
COC(=O)C(C)Sc1nc2c(c(=O)[nH]c(=O)n2C)n1CCC(C)C (configuration not stated)
    0.84	i
CC(C)CCOc1ccc(C(=O)N2CCCC2C(=O)O)cc1 (configuration not stated)
    0.35	i
CCOc1ccc(CCNC(=O)COC(=O)c2cccnc2SC)cc1OCC
    -0.47	i
CC(c1ccccc1)C1NC(C(=O)O)CS1 (configuration not stated)
    -0.78	i
COc1ccc(COn2nnc3ccc(S(=O)(=O)N4CCOCC4)cc32)cc1F
    0.01	i
O=C(CN1C(=O)C2CCCCC2C1=O)OCc1nnc(-c2ccccc2)o1 (configuration not stated)
    -0.02	i
CCN(CC)S(=O)(=O)c1cc(NC(=O)CCNC(=O)c2ccccc2Cl)ccc1C
    -0.61	i
CN(Cc1c(F)cccc1Cl)C(=O)CNC(=O)c1ccc2c(c1)OCO2
    -0.14	i
COCCN(C(=S)Nc1ccccc1C)C(C)c1ccco1 (configuration not stated)
    -1.2	i
CCOC(=O)c1c(C)[nH]c(C(=O)OCC(=O)c2c(N)n(C)c(=O)n(C)c2=O)c1C
    0.03	i
O=C(N/N=C/c1ccco1)c1ccn[nH]1
    0.83	i
Cc1ccccc1-n1ncc2c1CC(C)(C)CC2NC(=O)CCC(F)(F)F (configuration not stated)
    -0.51	i
COc1ccc(OC)c(NC(=O)CSc2nncc(=O)n2N)c1
    -0.06	i
O=C(CN(CC1CCCO1)C(=O)CNS(=O)(=O)c1ccc(F)cc1)NC1CCCC1 (configuration not stated)
    2.2	i
COCCNCc1ccccc1
    0.01	i
COc1ccc(CCN=C(N)NS(=O)(=O)c2ccc(C)c(C)c2)cc1OC
    0.22	i
COc1ccc(CNc2cc(C)ccc2C)c(OC)c1OC
    -0.91	i

The closing two records of the part before open the next one.
Values run as follows: KCNQ2 block baseline	KCNQ2 block
COc1ccc(CCN=C(N)NS(=O)(=O)c2ccc(C)c(C)c2)cc1OC
    0.22	i
COc1ccc(CNc2cc(C)ccc2C)c(OC)c1OC
    -0.91	i
CCNc1nc(SCCOc2ccccc2)nc(N(C)C)n1
    0.75	i
CC(=O)N(CCC(c1ccccc1)c1ccco1)Cc1cccs1 (configuration not stated)
    0.67*	-7.8*
CC(C)(C)OC(=O)N[C@@H](CC(=O)OCc1ccccc1)C(=O)O
    1.8	i
CCOC(=O)C(C)n1cnc2sc3c(c2c1=O)CCC3 (configuration not stated)
    0.03	i
Cc1cc(=O)oc2c3c(cc(OCC(=O)NCCC(=O)N[C@@H](C)C(=O)O)c12)OC(C)(C)CC3
    1.2	i
O=C(Nc1ccc2c(c1)OCO2)c1noc2c1CCCCC2
    3.2	i
CC1=C(C(=O)Nc2ccccc2C(F)(F)F)C(c2sccc2C)NC(=S)N1 (configuration not stated)
    -0.26	i
O=C(NCc1ccc2c(c1)OCO2)C(C(=O)c1ccccc1)n1cc(Cl)ccc1=O (configuration not stated)
    1.1	i
C=C(C)CN(CC)C(=O)CCc1nnc(CCCc2ccccc2)o1
    -1.3	i
COc1ccc(/C=N/NC(=O)c2cccc(OC(F)(F)C(F)F)c2)c(OC)c1OC
    0.21	i
O=C(c1cccc(N2CCCC2=O)c1)N1CCOCC1
    2.1	i

Not all compounds are listed, so the mix of outcomes need not match the whole.
